Tgondii IFNg = inhibitors of Toxoplasma gondii growth with IFN-gamma; Toxoplasma gondii growth in IFN-gamma-treated host cells; stronger effect = lower value; reference of the scale not given here; activity change, negative = inhibition, %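 (about 20 µM by stock and volumes)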; 3.8% of 69,000 active; AID 1259416;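 active = below -70%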;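 note: host cells are HeLa cells infected with Toxoplasma gondii; parasite growth read as luciferase light; one replicate is shown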
* hit, by the source's call; & = joins results of further samples. Some of the compounds tested, so the mix of outcomes need not match the whole.

| canonical_smiles | Tgondii IFNg |
| --- | --- |
| O=C(Cc1cccc2ccccc12)N1CC[C@@]2(O)CCCC[C@H]2C1 | -4.1 |
| O=C1c2ccccc2NS(=O)(=O)N1Cc1ccccc1 | 0.2 |
| Cc1oc(C(C)(C)C)cc1C(=O)NC1CCN(Cc2ccccc2)CC1 | -46.5 |
| Cc1nc(N(C)C)ncc1C(=O)Nc1ccc(-c2cccc(F)c2)cc1 | 6.9 |
| CCCN1C[C@@H]2Cc3c(c(-c4cccc(OC)c4)nn3C)[C@H]2C1 | 1.9 |
| COc1ccc(S(=O)(=O)c2cc(O)ccc2O)cc1 | 9.0 |
| CO[C@@H]1CN(C)C(=O)c2cc(NS(=O)(=O)c3ccc(C)cc3)ccc2OC[C@@H](C)N(Cc2ccccn2)C[C@H]1C | 104.6 |
| C=CCC1(Cl)C(=O)C(Cl)=C(N2CCOCC2)C1(OC)OC (stereo unspecified) | 1.5 |
| Cc1nc(N(C)C)nc2c1COCC21CCN(c2ncc(F)cn2)C1 (stereo unspecified) | -14.6 |
| Cn1ncc2c(N[C@H](CO)c3ccccc3)nc(C(C)(C)C)nc21 | -13.3 |
| CCO[C@H]1CC2CC1CN2C(=O)Cc1cccc(F)c1 (stereo partly specified) | -16.1 |
| CCNC(=O)CN(Cc1ccccc1)S(=O)(=O)c1ccc(Cl)cc1 | 92.6 |
| c1cncc(CN2CCC(c3ccc4c(c3)OCO4)CC2)c1 | 2.7 |
| CC(=O)Nc1ccc(-c2cn(CCc3nc(C)c4c(n3)CCC4)nn2)cc1 | 2.9 |
| C[C@@H]1CN([C@@H](C)CO)C(=O)CCCn2cc(nn2)CO[C@H]1CN(C)S(=O)(=O)c1cccc(C#N)c1 | 386.7 |
| COc1ccccc1C#Cc1ccc([C@H]2[C@@H](C#N)N(C(=O)C3CCC3)[C@H]2CO)cc1 | -5.7 |
| COc1cccc(CNC(=O)c2nc3c(s2)CCN(C(C)=O)CC3)c1 | 22.1 |
| Cc1cc2c(=O)[nH]nc(N)c2c(Sc2ccc(Cl)cc2)n1 | 51.6 |
| COc1cccc(/C=C/C2=CC(C)(C)NC(=S)N2)c1 | 44.2 |
| CCSCC(C)NCc1csc(-c2cnccn2)n1 (stereo unspecified) | 1.2 |
| COc1ccc(NC(=O)c2ccc(CN3CCS(=O)(=O)CC3)cc2)cc1 | -28.4 |
| Cc1nc(C(Cc2ccsc2)NC(=O)CCCN2CCCC2=O)sc1C (stereo unspecified) | 37.5 |
| OC1(Cn2cnc3ccccc32)CCN(Cc2ccc(F)cc2)CC1 | 29.7 |
| O=C(c1ccc2nc(NC(=O)C34CC5CC(CC(C5)C3)C4)sc2c1)N1CCCCC1 | -84.5* |
| CS(=O)(=O)Cc1ncn2c1CN(C(=O)NCc1ccccc1)CCC2 | 65.0 |
| Cc1c(C(=O)Nc2ccc(N3CCC(N4CCOCC4)CC3)c(C#N)c2)cnn1-c1ccc(Cl)cc1 | -83.9* |
| CCNc1ncc(C(=O)N[C@@H]2CC[C@@H](N)C2)cn1 | -4.7 |
| CN1CCn2c(-c3ccccc3)cnc2C12CCN(C(=O)Cc1ccccn1)CC2 | -37.5 |
| O=C(C1CC2(CCNCC2)CN1)N1CCC(c2nnc3ccccn23)CC1 (stereo unspecified) | 351.6 |
| CO[C@@H](CN(C)C(=O)Nc1ccc(Cl)cc1)[C@@H](C)CN(Cc1ccccc1Cl)[C@H](C)CO | 31.8 |
| O=C(c1ccccc1)N1CCC(c2cncc(-c3cccc(C(F)(F)F)c3)n2)CC1 | 3.2 |
| COCCN(C(=O)C(F)(F)F)C(C(=O)NC1CCCC1)c1cccs1 (stereo unspecified) | 4.1 |
| CC(C)C[C@H](NC(=O)[C@@H](COC(C)(C)C)NC(=O)[C@H](Cc1ccc(O)cc1)NC(=O)[C@H](CO)NC(=O)[C@H](Cc1c[nH]c2ccccc12)NC(=O)[C@H](Cc1cnc[nH]1)NC(=O)[C@@H]1CCC(=O)N1)C(=O)N[C@@H](CCCN=C(N)N)C(=O)N1CCC[C@H]1C(=O)NNC(N)=O | -4.9 |
| COc1ccccc1C(=O)Nc1ccc(-c2nc(Cn3nc(C)cc3C)c(C)o2)cc1 | -84.7* |
| COC(=O)c1cn(C(C)C)cc(C(=O)N2C[C@H]3CC=CC[C@H]3C2)c1=O | -2.8 |
| CCCc1nc(C(=O)N(C)Cc2nc(-c3cccc(C)c3)no2)cs1 | -3.8 |
| CCn1c(CC2CCN(C(=O)C3C=CCN3)CC2)nn(C)c1=O (stereo unspecified) | 1.4 |
| Cc1ccc(C)c(-c2coc(-c3ccc(NC(=O)COc4ccc(F)cc4)cc3)n2)c1 | -18.3 |
| CC(C)COc1ccccc1CN(C)C(=O)Cc1ccncc1 | 10.4 |
| O=C(NCC1CC1)c1cc2c(nc1NCC1CC1)CCNCC2 | -15.4 |
| Cc1ccccc1NC(=O)N1CC[C@@H]2Oc3ccccc3S(=O)(=O)N[C@@H]2CC1 | 2.2 |
| C#C[C@]1(O)CC[C@H]2[C@@H]3CCC4=CCCC[C@@H]4[C@H]3C(=C)C[C@@]21CC | -42.1 |
| N#C[C@H]1N[C@H](CO)[C@H]1c1ccc(-c2cccc(F)c2)cc1 | 17.8 |
| N#CCSC1=Nc2ccccc2C2=NC(CCC(=O)NCc3ccc4c(c3)OCO4)C(=O)N12 (stereo unspecified) | -7.3 |
| COC(=O)c1cc2n(n1)CCN(S(=O)(=O)c1ccc(C)cc1OC)C2 | -2.9 |
| COc1ccc(CN(C)Cc2ccc3ccccc3n2)cc1O | 7.9 |
| C[C@H](CO)N1C[C@H](C)[C@H](CN(C)S(=O)(=O)c2ccccc2)OCCCC[C@H](C)Oc2ccc(NC(=O)Nc3ccc4c(c3)OCO4)cc2C1=O | 107.7 |
| CN1CCC2(c3ccccc3)CCN(CC3CC3)CC12 (stereo unspecified) | -20.6 |
| O=C(O)C1CC(=O)N(Cc2csc(-c3ccccc3)n2)C1 (stereo unspecified) | -0.2 |
| Cc1nc(N2CCCCC2)ncc1C(=O)Nc1nnc(CCc2ccccc2)s1 | -1.9 |

(listing goes on)
| canonical_smiles | Tgondii IFNg |
| --- | --- |
| COc1ccc2c3c1OC1CC(O)C=CC31CCN(C)C2 (stereo unspecified) | 17.0&-57.1 |
| CCN(C[C@@H]1[C@@H](c2ccccc2)[C@H](CO)N1C(=O)COC)S(C)(=O)=O | -21.3 |
| COc1ccccc1NC(=O)N1C[C@@H]2[C@H](c3ccccc31)[C@H](CO)N2Cc1ccc2c(c1)OCO2 | 5.4 |
| CC(=O)NCc1ccc([C@H]2CN(S(=O)(=O)c3ccc(F)cc3)C[C@@H]2C(=O)N(C)C)cc1 | 41.4 |
| COc1ccc(-c2cc(N)nc3[nH]ccc23)cc1C | -77.8* |
| C[C@@H]1CN([C@@H](C)CO)C(=O)c2c(c3ccccc3n2C)-c2ccccc2CO[C@H]1CN(C)C | -26.0 |
| CC(=O)N1[C@H](CO)[C@H](c2ccccc2)[C@H]1CN(C)S(=O)(=O)c1ccccc1 | -24.3 |
| CC1NC(=O)COC12CCN(Cc1nccn1C)CC2 (stereo unspecified) | 1.6 |
| Cc1cc(C)cc(Sc2ccc3nnc(-c4ccccc4)n3n2)c1 | -81.7* |
| Cc1ccc(-c2nc(Cn3c(=O)c4c(C)cc(C)nc4n(-c4ccccc4)c3=O)c(C)o2)cc1 | -1.1 |
| COc1ccccc1OC(C)(C)C(=O)Nc1cnc2n1CCCC2 | 1.4 |
| COc1ccc(Br)c(-c2nnc(-c3ccccc3N)o2)c1 | 36.6 |
| COc1cc2c(cc1OC)CN(C(=O)c1ccc(S(=O)(=O)N(C)c3ccccc3)cc1)CC2 | 26.5 |
| Cc1c(NC(=O)CN2CCN(C)C(=O)C(Cc3ccccn3)C2)cnn1C (stereo unspecified) | 3.1 |
| COc1cccc(NC(=O)C[C@@H]2CC[C@H]3[C@@H](COc4ccc(NC(=O)C5CC5)cc4C(=O)N3C)O2)c1 | -19.9 |
| CC(C)(CC(=O)N1CCN(c2ccccc2)CC1)Sc1ccc(Cl)cc1 | 67.7 |
| Cc1ccccc1N1CCN(Cc2cnc(N3CCOCC3)nc2)C(C)C1 (stereo unspecified) | -1.5 |
| COCC(=O)Nc1ccc2c(c1)C(=O)N(C)C[C@@H](OC)[C@H](C)CN(CCc1ccccc1)[C@H](C)CO2 | 17.3 |
| CN1C(=O)c2cc(NC(=O)Cc3cccs3)ccc2OC[C@H]2O[C@H](CC(=O)NCCCN3CCOCC3)CC[C@@H]21 | 1.6 |
| Cc1cccc(-n2c(=O)c3cc4c(=O)n(-c5cccc(C)c5C)c(=O)c4cc3c2=O)c1C | -0.9 |
| NC(=O)Cc1csc(NC(=O)c2ccc3nc(C(F)(F)F)[nH]c3c2)n1 | -8.8 |
| O=C(Nc1ccc(F)c(F)c1)c1c(O)c2cccnc2n(-c2ccccc2)c1=O | 30.8 |
| Cc1ncc(CN2CCC(c3nn(C)c(=O)n3-c3ccccc3)CC2)s1 | -6.0 |
| CO[C@@H]1CC[C@@H]2CCOc3ccc(C#N)cc3C(=O)N(C)[C@H](C)C(=O)N(C)C[C@@H]1O2 | -6.1 |
| c1ccc(COC2CCN(c3ncccn3)CC2)cc1 | -1.8 |

An excerpt from above in order of length of the SMILES, lowest first.
| canonical_smiles | Tgondii IFNg |
| --- | --- |
| CC(C)(CC(=O)N1CCN(c2ccccc2)CC1)Sc1ccc(Cl)cc1 | 67.7 |
| CC(=O)N1[C@H](CO)[C@H](c2ccccc2)[C@H]1CN(C)S(=O)(=O)c1ccccc1 | -24.3 |
| Cc1ccc(-c2nc(Cn3c(=O)c4c(C)cc(C)nc4n(-c4ccccc4)c3=O)c(C)o2)cc1 | -1.1 |

(continued)
canonical_smiles	Tgondii IFNg
O=C(c1cccnc1-c1cccc2c1CCNC2)N1C[C@H]2CC[C@@H]1C2	4.9
Cc1ccc(-c2nc(CN3C(=O)C(O)(c4ccccc4)c4ccccc43)c(C)o2)cc1 (stereo unspecified)	-65.3
O=S(=O)(c1ccc(F)cc1)N1CCCCN2[C@@H](CO)[C@@H](c3ccc(-c4cncnc4)cc3)[C@@H]2C1	-2.5
O=C(NCCCOc1ccccc1)c1c(O)cccc1O	11.9
CO[C@H]1CN(C)C(=O)c2ccc(NS(C)(=O)=O)cc2OC[C@H](C)N(CC2CC2)C[C@@H]1C	34.7
CCc1csc(N2[C@H](CO)[C@H](c3ccccc3)[C@@H]2CNC)n1	-6.7
N#Cc1ccc(NC(=O)CSc2nc3c(c(C(F)(F)F)n2)CCc2ccccc2-3)cc1	-10.4
C=CCOC1CC2(CCN(C(=O)c3ccnnc3)CC2)C1	7.1
COc1cc(Nc2nc(-c3nnc(-c4ccc(C)cc4)o3)nc3ccccc23)cc(OC)c1OC	371.9
COc1ccc(S(=O)c2ccccc2C(=O)O)cc1 (stereo unspecified)	2.2
NC1CCN(C(=O)c2cc3n(n2)CCN(Cc2ccccc2)C3)C1 (stereo unspecified)	-7.9
CCC(=O)N1C[C@@H]2[C@H](c3ccccc31)[C@H](CO)N2Cc1ccc(F)cc1	10.3

2 of these compounds in a different format.
CO[C@H]1CN(C)C(=O)c2ccc(NS(C)(=O)=O)cc2OC[C@H](C)N(CC2CC2)C[C@@H]1C
  Tgondii IFNg: 34.7

CCC(=O)N1C[C@@H]2[C@H](c3ccccc31)[C@H](CO)N2Cc1ccc(F)cc1
  Tgondii IFNg: 10.3

(more compounds)
canonical_smiles	Tgondii IFNg
C[C@H]1CCCCO[C@H](CN(C)S(=O)(=O)c2ccc(Cl)cc2)[C@@H](C)CN([C@@H](C)CO)C(=O)c2cc(NC(=O)Nc3ccc(C(F)(F)F)cc3)ccc2O1	-35.8
Cc1ccc(C)c(NC(=O)C(=O)NCCc2csc(-c3ccc(Cl)cc3)n2)c1	-53.4
CCOc1cc(-c2ccc(OC)cc2)cc(=O)c2c(C)oc(C)c12	14.2
COCC(NC(=O)c1cc(NC(C)=O)ccc1Cl)c1ccnn1C (stereo unspecified)	-42.5
CN(Cc1ccc(-n2cccn2)cc1)Cc1cnc(N(C)C)nc1	5.3
CC(c1ccccc1-n1cccn1)n1ccnc1-c1ccco1 (stereo unspecified)	3.4
CC(=O)N1CCC(C(=O)NCc2ccccc2)(N(Cc2ccc(Cl)cc2)C(=O)c2ccc(C)cc2)CC1	-2.8
COc1cccc(NC(=O)Nc2ccc3c(c2)C(=O)N(C)C[C@@H](OC)[C@H](C)CN[C@H](C)CO3)c1	20.2
CNC(=O)[C@H]1C[C@@H]2CN(C(=O)NCCc3ccccc3)C[C@H]1O2	-2.4
O=C(O)C1CC(N2CCCC2)CCN1C(=O)c1ccsc1 (stereo unspecified)	-7.3
Cc1cccc2[nH]c(CNC(=O)c3c4c(nn3C)CCCC4)nc12	-1.6
COc1cc(-c2cccs2)cc2c1OCCN(C(=O)CCc1cn[nH]c1)C2	-8.0
C=CCN(Cc1ccc(O)c(C)c1)Cc1ccccn1	2.4
O=C(CN1CCC(c2ccncc2)CC1)NCc1cccs1	-18.9
O=C(CCc1ccccc1)Nc1ccc(-c2nc(-c3ccccc3)co2)cc1	105.9
O=C1N[C@H](Cc2ccccc2)COCc2cnnn2CC[C@@H]1Cc1ccc(-c2ccccc2)cc1	-19.5
O=C(NCc1cc(F)cc2c1OCOC2)c1ccc(Oc2cc(Cl)cc(Cl)c2)o1	-34.7
CCOCC1CC2(COCCN2S(=O)(=O)c2ccccc2)CO1 (stereo unspecified)	-10.5
CCOc1ccc(S(=O)(=O)N2CCc3nc(-c4ccccc4)sc3C2)cc1	14.8
CC(C)CC#Cc1ccc([C@H]2[C@H](CO)N3CCCCN(C(=O)Nc4ccccc4)C[C@@H]23)cc1	-46.4
Cc1ccc2c(c1)C(=O)OC1(O)C3C4C=CC(C4)C3C(=O)N21 (stereo unspecified)	-25.0
Cc1cccc(CN2C[C@H]3[C@H](C(=O)N4CCOCC4)CCS(=O)(=O)[C@H]3C2)c1	-1.3
CSc1ccc(C2c3[nH]c4ccccc4c3CCN2C(=O)c2cccc(Cl)c2)cc1 (stereo unspecified)	-18.5
OC1CCCN(Cc2c(-c3cccnc3)[nH]c3cccnc23)C1 (stereo unspecified)	-18.7
CC1(C)Cc2ccccc2C(=NC(Cc2c[nH]c3ccccc23)C(=O)O)N1 (stereo unspecified)	6.8
CC(Cn1ccnc1)NCC1(N2CCOCC2)CCCCC1 (stereo unspecified)	11.3
COc1ccc(C(=O)N(Cc2ccc(F)cc2)C2(C(=O)NCc3ccccc3)CCN(C(C)=O)CC2)cc1	4.9
Cc1cc(N(C)Cc2cc(C(C)C)on2)nc(-c2cccnc2)n1	-60.2

Bioassay records from PubChem BioAssay.
